# Vaccinia Venus = qHTS for Stage-Specific Inhibitors of Vaccinia Orthopoxvirus: Venus Reporter Primary qHTS; Vaccinia virus Venus reporter expression, fluorescence; Potency, µM (series often up to 36.5 µM), inactives show top-dose activity change, negative = inhibition, actives largely listed as inhibitors; actives 0.46% (n = 330,000); active means well fitted inhibition curve with a large enough effect; inconclusive means small, poorly fitted or top-dose-only effect; inactive means no such curve, though single readings can be large or run the other way; tested in A549 cells; also: nearly all actives have a fitted effect of over 30% in size; inactives centre near -10
# VACV mCherry inh = qHTS for Stage-Specific Inhibitors of Vaccinia Orthopoxvirus: mCherry Reporter Primary qHTS; Vaccinia virus mCherry reporter infection, fluorescence; about a quarter of the inactives have no number; Potency, µM (top dose mostly 36.5 µM), without a hit: top-dose activity change, negative = inhibition, actives largely listed as inhibitors; actives 0.63% (n = 310,000); active = well fitted inhibition curve with a large enough effect; inconclusive = small, poorly fitted or top-dose-only effect; inactive = no such curve, though single readings can be large or run the other way; tested in A549 cells; also: nearly all actives have a fitted effect of over 35% in size; inactives centre near -10
# Active calls of the source: *; i = inactive; ? = inconclusive; nt = no result given; [ ] = remark or other dose. % is scaled to controls: 0 for no effect and ±100 for the full control effect; potency is read from the fitted curve at half-maximal effect.
# Values run as follows: Vaccinia Venus	VACV mCherry inh
1. CC(C)c1c(O)ccc2c1CCC1C(C)(C)CCC[C@@]21C (some centres undefined)
 : ?	-15%
2. CCn1c(SCC(=O)Nc2ccc(NC(=O)c3ccco3)cc2)nnc1-c1cccs1
 : -5%	-16%
3. Cc1nc(-c2cccc(NC(=O)Nc3ccccc3C(F)(F)F)c2)no1
 : 1%	-3%
4. COc1ccc(CNC(=O)CN2C(=O)COc3ccc(S(=O)(=O)N4CCCCCC4)cc32)cc1
 : -6%	-13%
5. OC(CN1CCN(Cc2ccccc2)CC1)c1ccc(F)cc1 (centres undefined)
 : -7%	-14%
6. O=C(CSc1nc(=O)n2ccccc2n1)NCc1ccc2c(c1)OCO2
 : 1%	i
7. CCCC1(C(=O)OC)NC(c2ccc(OC)cc2OC)C2C(=O)N(c3cccc(C(C)=O)c3)C(=O)C21 (centres undefined)
 : -6%	-15%
8. CCOC(=O)c1ccc(NC(=O)C(CC)CC)cc1
 : -10%	-13%
9. O=C(NCc1ccco1)C1CCN(c2nc3ccccc3n2Cc2ccccc2F)CC1
 : -19%	-27%
10. CCOc1ccccc1NCc1nnc(-c2ccccc2)o1
 : -15%	-15%
11. COc1cc(Cl)ccc1OCc1cc(C(=O)N(C)Cc2cn(C)nc2C)no1
 : -9%	-14%
12. Cc1c(Cl)cccc1NC(=O)CCN1C(=O)c2ccccc2Sc2ncccc21
 : -7%	-6%
13. CCC(C(=O)NC1CCCCC1)N(Cc1cccs1)C(=O)CCC(=O)Nc1cc(C)on1 (centres undefined)
 : -4%	4%
14. CC(C)c1ccccc1OCC(=O)Nc1ccc2[nH]ncc2c1
 : -21%	-15%
15. Cc1ccc(N2C(=O)N(CC(=O)Nc3cccc([N+](=O)[O-])c3C)C(=O)C2C)cc1 (centres undefined)
 : -18%	i
16. CC(C)N(CCO)C(=O)C(c1ccccc1)c1ccccc1
 : -1%	i
17. CNc1nc2ccccc2n(C)c1=O
 : -17%	-11%
18. FC(F)(F)c1ccc(Nc2nnnc3ccccc23)cc1
 : -16%	-9%
19. Cc1ccc(C)c(NC(=O)Cn2cc(S(=O)(=O)c3ccc(F)cc3)c(=O)c3cc(F)ccc32)c1
 : 5%	2%
20. CCOC(=O)C1CCN(C(=O)CNC(=O)c2nn(-c3ccc(OC)c(Cl)c3)c(=O)c3ccccc23)CC1
 : 5%	-21%
21. Cc1c(O)ccc(-c2n[nH]c(C(=O)O)c2-c2nc3ccccc3s2)c1O
 : -9%	-20%
22. Cc1ccc(-c2nn(C(C)(C)C)c3ncnc(N)c23)cc1
 : -2%[60.7 µM]	-12%[60.7 µM]
23. COc1cccc(-c2cnc(C(O)c3cccc(CN4CCCCC4)c3)[nH]2)c1 (centres undefined)
 : -7%	-27%
24. COc1ccccc1-c1sc2ccccc2c1-c1ccc2c(c1)OCO2
 : -7%	-14%
25. COc1ccc(-c2noc(CC(=O)Nc3ccc(Br)cc3C)n2)cc1
 : -5%	-5%
26. COc1cc2c(cc1OC)CN(C(=O)C(CCSC)NS(=O)(=O)c1ccc(C)cc1)CC2 (centres undefined)
 : -12%	i
27. Cc1ccc(C)c(NC(=O)CN(Cc2ccccc2)S(=O)(=O)c2ccc3nc(C)sc3c2)c1
 : -21%	-10%
28. COc1ccc(CNC(=O)N2CCc3ccccc3C2)cc1
 : 3%	i
29. Cc1ccc(C)c(NC(=S)N(CCc2ccncc2)C(C)C)c1
 : -1%	-2%
30. CCOc1ccc(NC(=O)CSc2ncc(S(=O)(=O)c3ccc(F)c(C)c3)c(=O)[nH]2)cc1
 : -4%	1%
31. Cc1ccc(S(=O)(=O)c2cc3c(=O)n4ccccc4nc3n(CCCN3CCOCC3)c2=N)cc1C
 : -14%	i
32. O=C(CSc1ncnc2c1cnn2-c1ccc(F)cc1)NC1CCCC1
 : -9%	-11%
33. O=C(O)c1ccc2c(c1)C(=O)N(Cc1ccco1)C2=O
 : -9%	-4%
34. Nc1nonc1-n1nnc(C(=O)N/N=C/c2cccc(F)c2)c1-c1ccccc1
 : 3%	2%
35. Cc1cc(C(C)(C)C)cc(C)c1COC(=O)c1cccnc1
 : -12%	?
36. CCC1CN(CC(=O)NCc2cc(C)n(C)n2)Cc2cc(OC)ccc2O1 (centres undefined)
 : -3%	-11%
37. CCOC(=O)C1(Cc2ccccc2)CCCN(C2CCN(C(C)=O)CC2)C1 (centres undefined)
 : 5%	i
38. CCC(C)C(=O)Nc1nnc(SCC(=O)NC2CCCC2)s1 (centres undefined)
 : -4%	-9%
39. Cc1ccc(NC(=O)CN2C(=O)COc3ccc(C)cc32)nc1
 : -10%	-16%
40. C=C(C)CNC(=S)N/N=C(\C)c1cccc(NC(C)=O)c1
 : -17%	-21%
41. COc1ccc(C(=O)CSc2nnc(CC(=O)Nc3ccccc3OC)n2C)cc1
 : -20%	i
42. O=C(C1CCN(C2CCN(C/C=C/c3ccccc3)CC2)CC1)N1CCOCC1
 : -15%	i
43. COc1ccc(/C=C(/NC(C)=O)C(=O)O)cc1
 : -9%	-21%
44. COc1ccc(CC(=O)N(C)Cc2cccc(OC)c2OC)cc1S(=O)(=O)N1CCOCC1
 : -6%	-8%
45. Cc1ccc(Nc2c(-c3ccc(Cl)cc3)nc3sccn23)c(C)c1
 : -9%	-9%
46. CCOC(=O)c1nnc(-c2ccccc2)nc1N1CC(C)OC(C)C1 (centres undefined)
 : -3%	-12%
47. CSc1nc(N)c2ncn([C@@H]3O[C@H](COP(=O)(O)OP(=O)(O)OP(=O)(O)O)[C@@H](O)[C@H]3O)c2n1
 : -10%	-12%
48. COc1ccc(NC(=O)CCc2c(C)nn(-c3ccc(N4CCCC4)nn3)c2C)cc1Cl
 : -6%	-16%
49. CC1(c2ccccc2)NC(=O)N(CC(=O)Nc2ccc(S(N)(=O)=O)cc2)C1=O (centres undefined)
 : -8%	6%
50. Cc1ccc(-c2ccc(CN3C(CC(C)C)C(=O)N(Cc4cn(Cc5ccco5)nn4)CCS3(=O)=O)cc2)cc1 (centres undefined)
 : -2%	-3%
51. N#Cc1ccccc1NCc1ccccc1
 : -11%	i
52. CN1CCC[C@@H]1CCNC(=O)c1c(-c2ccc3c(c2)OCO3)noc1-c1ccsc1
 : ?	i
53. Cc1c(Br)c(=O)oc2c(Br)c(O)c(O)cc12
 : -8%	-22%
54. CCOC(=O)c1cnc(-n2nc(C)cc2C)nc1Oc1ccc(C(=O)OC)cc1
 : -25%[7.34 µM]	-14%[7.34 µM]
55. CC(=O)c1ccc(N2CCN(c3nc4ccccc4c4nc(-c5cccc(C)c5)nn34)CC2)cc1
 : -2%	-8%
56. COc1ccc(-c2nc(N3CCC(C)CC3)[nH]c(=O)c2C#N)cc1
 : -11%	-25%
57. CCCCc1c(C)nc(Nc2ccc(OC)cc2)[nH]c1=O
 : -6%	-23%
58. Cc1ccc(-n2ncc3c2CCCC3NC(=O)CCCN2CCCC2=O)cc1C (centres undefined)
 : -10%	-11%
59. O=C(CCCc1ccccc1)Nc1ccnn1C1CCN(Cc2ccccc2F)CC1
 : ?	-20%
60. O=C(NCCO)C1COc2ccccc2O1 (centres undefined)
 : -7%	-13%

# Compounds 41 through 45 from above:
# Values run as follows: Vaccinia Venus	VACV mCherry inh
41. COc1ccc(C(=O)CSc2nnc(CC(=O)Nc3ccccc3OC)n2C)cc1
 : -20%	i
42. O=C(C1CCN(C2CCN(C/C=C/c3ccccc3)CC2)CC1)N1CCOCC1
 : -15%	i
43. COc1ccc(/C=C(/NC(C)=O)C(=O)O)cc1
 : -9%	-21%
44. COc1ccc(CC(=O)N(C)Cc2cccc(OC)c2OC)cc1S(=O)(=O)N1CCOCC1
 : -6%	-8%
45. Cc1ccc(Nc2c(-c3ccc(Cl)cc3)nc3sccn23)c(C)c1
 : -9%	-9%

# Next part
# Values run as follows: Vaccinia Venus	VACV mCherry inh
61. COc1ccc(COCC(O)CN2CCN(S(=O)(=O)c3ccc(C(C)C)cc3)CC2)cc1 (centres undefined)
 : -27%	?
62. CC(C)CN1C(=O)c2ccc(C(=O)Nc3ccccc3C(=O)O)cc2C1=O
 : -13%	i
63. CC1(c2ccc(OC(F)F)cc2)NC(=O)N(CC(=O)Nc2ccc(Cl)cc2F)C1=O (centres undefined)
 : -10%	i
64. COc1cccc(CNC(=O)CN2C(=O)N(c3cccc(Cl)c3)S(=O)(=O)c3ccccc32)c1OC
 : -12%	-19%
65. C#CCN(C[C@H]1[C@H](OC(=O)Nc2cccs2)[C@H](OC(=O)Nc2cccs2)C[C@H]2C(=O)N(c3ccccc3)C(=O)[C@@H]12)S(=O)(=O)c1ccc(C)cc1
 : -6%	-15%
66. COc1cc(/C=N\NC(=O)c2ccc(=O)[nH]n2)cc(OC)c1OC
 : 23%	nt
67. CN(CC(=O)Nc1ccc(F)cc1)C(=O)c1cc2c(s1)CCCCC2
 : -3%	i
68. Cc1cc(C(F)(F)F)n2ncc(-c3cccc(Br)c3)c2n1
 : -18%	-10%
69. COc1ccc(CN=C2NC(=O)CC(C(=O)Nc3ccc(F)cc3)S2)cc1 (centres undefined)
 : -6%	-8%
70. Cc1ccc(C(=O)c2cn(Cc3ccccc3)c3cc4c(cc3c2=O)OCCO4)cc1
 : -22%	?
71. O=C(N/N=C/c1ccc2c(c1)OCO2)c1sc2cc(Cl)ccc2c1Cl
 : -6%	i
72. COc1cc(CCCN2C(=S)NC[C@H]2Cc2ccc(O)cc2)cc(OC)c1OC
 : -21%	-26%
73. CCCN1CCN(C(=O)c2cccc3c2C(=O)N(CCOC)C3)CC1
 : -3%	i
74. CN1C(=O)CC(N2CCN(c3ccc(Cl)cc3)CC2)C1=O (centres undefined)
 : -5%	-4%
75. Cc1ccc(NC(=O)Cn2c(=O)n(CCCCC(=O)NCc3ccco3)c(=O)c3ccccc32)cc1
 : ?	nt
76. CCCCCC(=O)N1C[C@@H](n2cc(COC(=O)c3ccccc3)nn2)[C@H](O)C[C@@H]1c1ccccc1
 : -22%	i
77. Cc1ccc(NC(=O)COC(=O)c2nn(C)cc2Cl)cc1
 : 2%	i
78. C/C(=N\NC(=O)c1cccc([N+](=O)[O-])c1)c1cccc(NC(=O)C2CC2)c1
 : 9%	-10%
79. Cc1nn(C)c(C)c1NC(=O)Nc1cccc(C(F)(F)F)c1
 : -10%	i
80. O=C(CSc1nc2ccccc2s1)NCc1cc([N+](=O)[O-])ccc1O
 : -17%	i
81. COc1cccc(OCC(=O)NCCS(=O)(=O)N2CCN(c3ccccc3F)CC2)c1
 : -20%	i
82. COC(=O)Cc1cc(=O)oc2cc(O)ccc12
 : -1%	i
83. CC(C)(C)OC(=O)C[C@@H]1C/C=C\C[C@H](CC(=O)N[C@H](CO)Cc2ccccc2)C(=O)N[C@H](C(C)(C)C)COC1=O
 : -16%	i
84. O=[N+]([O-])c1cc(C(F)(F)F)ccc1Sc1ccc2ccccc2n1
 : -15%	i
85. COc1cccc(NC(=O)Nc2nnc(N3C(C)CCCC3C)s2)c1 (centres undefined)
 : 10%	i
86. Cc1ccc2c(c1)NC(=O)C(CC(=O)NCc1cccnc1)O2 (centres undefined)
 : 8%	-14%
87. O=C(CNC(=O)c1ccc(F)cc1)OCc1cc(=O)n2nc(C3CC3)sc2n1
 : -7%	8%
88. CCCS(=O)(=O)c1nc(C)cc(C)c1S(C)(=O)=O
 : -2%	i
89. O=C(CSc1ncc(S(=O)(=O)c2ccc(Br)cc2)c(=O)[nH]1)Nc1ccc2c(c1)OCCO2
 : -3%	1%
90. COc1c2ccoc2nc2c(OC)cccc12
 : -2%	-7%
91. CCn1c2ccc(C)cc2c2nc3cc(C(=O)O)ccc3nc21
 : ?	?
92. Cc1cc(C)c2nc(NC(=O)C3CCCO3)sc2c1 (centres undefined)
 : ?	nt
93. Cc1cc(C)cc(-n2c(C)nc3cc(C(=O)NCc4ccc(F)cc4)ccc32)c1
 : -17%	-13%
94. CCOC(=O)c1ccc(NC(=O)N2C[C@@H]3C[C@@H](C2)c2cccc(=O)n2C3)cc1
 : 7%	1%
95. Cc1nn(C)cc1C(=O)NNC(=S)Nc1ccc(Cl)cc1
 : -7%	i
96. Cn1c(SCc2nc(-c3ccccc3)no2)nnc1-c1ccco1
 : -12%	-11%
97. CCOC(=O)CCCCC(=O)c1[nH]c(=O)[nH]c1CSc1nnc2c3ccccc3n(C(C)C)c2n1
 : -5%	-7%
98. CCOC(=O)N1CCC(=NNc2ccc(S(N)(=O)=O)cc2[N+](=O)[O-])CC1
 : 0%	?
99. CC(=O)C1=C(C)OC(N)=C(C#N)C1c1ccco1 (centres undefined)
 : 4%	3%
100. CS(=O)(=O)c1ccc(-c2nnc(NC(=O)c3ccco3)o2)cc1
 : -3%	-2%
101. Cc1oc(-c2ccc(Cl)cc2)cc1C(=O)N1CCC1(C)C(=O)O (centres undefined)
 : -5%	2%
102. COc1cc(CNCCCN2CCOCC2)cc(Cl)c1OCC(=O)NC(C)(C)C
 : -4%	-16%
103. CCc1ccc(NC2=CC(=O)C(=O)c3ccccc32)cc1
 : -8%	i
104. Cc1c(OCc2ccccc2)c(=O)ccn1Cc1ccc(F)cc1
 : -5%	-5%
105. CCc1cc(=O)n2[nH]c(-c3ccccc3)c(-c3ccccc3)c2n1
 : ?	-2%
106. CC(=O)N[C@@H]1c2c(ccc3ccccc23)OC[C@@H]1COC(C)=O
 : -16%	-5%
107. COc1ccc(C(C)NC(=S)NC2CCCC2)cc1OC (centres undefined)
 : -8%	i
108. CN(C(=O)CN1C(=O)NC2(CCc3ccccc32)C1=O)C1CCS(=O)(=O)C1 (centres undefined)
 : -18%	-13%
109. COc1ccc(C(CNC(=O)c2cccc([N+](=O)[O-])c2)N2CCOCC2)cc1 (centres undefined)
 : -10%	-12%
110. CCCCCc1nnc(NC(=O)C2=COCCO2)s1
 : 2%	i
111. COc1cccc(NC(=O)Nc2nnc(N3CCCCC3C)s2)c1 (centres undefined)
 : -23%	-8%
